Screening data: PubChem BioAssay, Johns Hopkins Ion Channel Center
KCNQ2 enhance = KCNQ2 (rat) channel potentiation. O88943. CHO-K1 KCNQ2, FluxOR thallium flux fluorescence; hits give high values. B-score at 10 µM. actives 0.54% (n = 310,000). AID 2239;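 active = fluorescence ratio B-score at least 3 SD of library B-scores, with initial fluorescence B-score within 3 SD, cut at about 5.3 in these data; same plate scores as AID 2156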;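 also: B-score of peak minus minimum over baseline fluorescence ratio after K+ and Tl+ stimulus; positive B-score means potentiation of KCNQ2 with more thallium influx and brighter signal; only the inactives scoring about 0 or higher are listed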
Target sequence (O88943 whole entry, looked up): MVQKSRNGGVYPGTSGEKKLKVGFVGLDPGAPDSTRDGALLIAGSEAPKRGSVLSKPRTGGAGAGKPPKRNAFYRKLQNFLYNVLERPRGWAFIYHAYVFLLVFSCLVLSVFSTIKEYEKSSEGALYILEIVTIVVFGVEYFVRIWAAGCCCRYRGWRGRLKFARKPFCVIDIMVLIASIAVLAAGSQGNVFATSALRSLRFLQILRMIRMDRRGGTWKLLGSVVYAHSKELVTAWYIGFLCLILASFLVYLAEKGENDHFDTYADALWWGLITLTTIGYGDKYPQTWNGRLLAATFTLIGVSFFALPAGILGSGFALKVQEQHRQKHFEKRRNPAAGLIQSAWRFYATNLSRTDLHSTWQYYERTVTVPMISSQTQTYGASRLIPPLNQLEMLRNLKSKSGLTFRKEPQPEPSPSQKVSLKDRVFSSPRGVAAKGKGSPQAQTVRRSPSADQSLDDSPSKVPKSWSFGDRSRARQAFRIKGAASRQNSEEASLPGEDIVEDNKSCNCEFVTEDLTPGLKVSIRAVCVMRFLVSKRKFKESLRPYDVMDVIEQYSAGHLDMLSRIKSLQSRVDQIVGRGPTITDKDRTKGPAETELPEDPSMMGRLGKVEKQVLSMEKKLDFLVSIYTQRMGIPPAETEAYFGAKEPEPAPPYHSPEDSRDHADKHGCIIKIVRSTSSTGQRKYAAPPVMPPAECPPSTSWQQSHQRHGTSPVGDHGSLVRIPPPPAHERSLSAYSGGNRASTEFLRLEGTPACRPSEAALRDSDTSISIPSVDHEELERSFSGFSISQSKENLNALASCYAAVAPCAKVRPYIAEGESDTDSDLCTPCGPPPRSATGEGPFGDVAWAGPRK
KCNQ2 enhance baseline = recorded beside KCNQ2 enhance, whose call it bears; B-score; compound at 10 µM; measured here: initial fluorescence intensity artifact check;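 brightness before thallium and not channel activity; 0 = typical well and far values either way flag optical interference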
Active calls of the source: *. Only part of the results is shown (hit frequency here may not be typical).

O=C1/C(=C/c2ccc3c(c2)OCO3)N2CCC1CC2 was read as KCNQ2 enhance 0.38 and KCNQ2 enhance baseline 1.2.
COc1ccccc1N(CC(=O)NC1CCCC1)C(=O)c1cnn(C(C)C)c1 was read as KCNQ2 enhance 0.03 and KCNQ2 enhance baseline 0.25.
CSc1nnc([C@@H](N)Cc2ccccc2)o1 was read as KCNQ2 enhance 2 and KCNQ2 enhance baseline -2.3.
O=C(CCCOc1ccc(Cl)cc1Cl)N1CCC2(CC1)OCCO2 was read as KCNQ2 enhance 0.04 and KCNQ2 enhance baseline 0.38.
Screening Cc1nc2ccccc2c(=O)n1-c1cccc([N+](=O)[O-])c1 returned KCNQ2 enhance 1.6 and KCNQ2 enhance baseline -1.8.
`CCc1ccc(/C=C(/C#N)C(N)=S)cc1` gave KCNQ2 enhance 0.14 and KCNQ2 enhance baseline -0.11.
O=Cc1cn(Cc2ccccc2F)c2ccccc12 was read as KCNQ2 enhance 0.58 and KCNQ2 enhance baseline 0.96.
`CCCNC(=O)N1[C@H]2CC[C@@H]1C(C(=O)OC)=C(c1cc3ccccc3s1)C2` gave KCNQ2 enhance 0.96 and KCNQ2 enhance baseline 0.2.
CN1C(=O)C(Cc2ccc3c(c2)OCO3)C(=O)N(C)C1=O was read as KCNQ2 enhance 1.2 and KCNQ2 enhance baseline 0.63.
`CCC(=NC(C)c1ccccc1)c1c(O)[nH]c(=O)[nH]c1=O` (stereo unspecified) gave KCNQ2 enhance 1.1 and KCNQ2 enhance baseline 0.63.
`O=CC(Br)P(=O)(N1CCOCC1)N1CCOCC1` (stereo unspecified) gave KCNQ2 enhance 0.5 and KCNQ2 enhance baseline 1.1.
For COc1cc(C(=O)Nc2ccc(Br)cc2C(=O)c2ccccc2)cc(OC)c1OC the results were KCNQ2 enhance 0.61 and KCNQ2 enhance baseline 0.3.

Random excerpt: two compounds from above, in no set order.
O=C1/C(=C/c2ccc3c(c2)OCO3)N2CCC1CC2 was read as KCNQ2 enhance 0.38 and KCNQ2 enhance baseline 1.2.
`O=CC(Br)P(=O)(N1CCOCC1)N1CCOCC1` (stereo unspecified) gave KCNQ2 enhance 0.5 and KCNQ2 enhance baseline 1.1.

By substructure: the entries above with an aryl methoxy group.
COc1ccccc1N(CC(=O)NC1CCCC1)C(=O)c1cnn(C(C)C)c1 was read as KCNQ2 enhance 0.03 and KCNQ2 enhance baseline 0.25.
For COc1cc(C(=O)Nc2ccc(Br)cc2C(=O)c2ccccc2)cc(OC)c1OC the results were KCNQ2 enhance 0.61 and KCNQ2 enhance baseline 0.3.

The results go on:
Screening CCOC(=O)C1CCN(/C=C2\C(=O)NC(=S)N(CC)C2=O)CC1 returned KCNQ2 enhance 0.08 and KCNQ2 enhance baseline -1.1.
`Cn1cnc(CCN)c1` gave KCNQ2 enhance 0.59 and KCNQ2 enhance baseline -0.95.
For COc1ccccc1Oc1c(C)oc2cc(OC(=O)N(C)C)ccc2c1=O the results were KCNQ2 enhance 0.14 and KCNQ2 enhance baseline -1.2.
`CCN(CC)CCCN=C(C)c1c(O)n(-c2ccccc2)c(=O)[nH]c1=O` gave KCNQ2 enhance 1.3 and KCNQ2 enhance baseline -0.99.
For O=c1cccc2n1CC1CC2CN(C(c2cccc(F)c2)c2sc3ncnn3c2O)C1 (stereo unspecified) the results were KCNQ2 enhance 0.1 and KCNQ2 enhance baseline 0.25.

Structures from the list above that have four or more nitrogen atoms, in the order listed:
COc1ccccc1N(CC(=O)NC1CCCC1)C(=O)c1cnn(C(C)C)c1 was read as KCNQ2 enhance 0.03 and KCNQ2 enhance baseline 0.25.
`CCN(CC)CCCN=C(C)c1c(O)n(-c2ccccc2)c(=O)[nH]c1=O` gave KCNQ2 enhance 1.3 and KCNQ2 enhance baseline -0.99.
For O=c1cccc2n1CC1CC2CN(C(c2cccc(F)c2)c2sc3ncnn3c2O)C1 (stereo unspecified) the results were KCNQ2 enhance 0.1 and KCNQ2 enhance baseline 0.25.
